Assay outcomes deposited in PubChem BioAssay by several laboratories.
RGS16-Gao = modulates binding between human RGS16 and Galphao; bead-based flow cytometry RGS16-Galphao binding, fluorescence; actives lie on both sides; binding response (% of control), % at 10 µM; 220,000 compounds, 0.38% hits; AID 1441;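 active = below 25% or above 175%, edge rows of some plates excepted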;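 also: Galphao activated by GDP with aluminum fluoride before binding; 100% = wells without compound and 0% = beads without RGS; some results beyond the cut were filed as inactive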
Target sequence (O15492 whole entry, looked up): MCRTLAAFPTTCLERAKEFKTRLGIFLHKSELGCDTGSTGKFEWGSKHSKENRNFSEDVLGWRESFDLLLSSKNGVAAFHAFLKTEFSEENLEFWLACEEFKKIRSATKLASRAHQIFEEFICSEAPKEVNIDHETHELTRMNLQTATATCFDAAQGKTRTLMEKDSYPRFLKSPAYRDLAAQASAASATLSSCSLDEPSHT
Target sequence (P09471 whole entry, looked up): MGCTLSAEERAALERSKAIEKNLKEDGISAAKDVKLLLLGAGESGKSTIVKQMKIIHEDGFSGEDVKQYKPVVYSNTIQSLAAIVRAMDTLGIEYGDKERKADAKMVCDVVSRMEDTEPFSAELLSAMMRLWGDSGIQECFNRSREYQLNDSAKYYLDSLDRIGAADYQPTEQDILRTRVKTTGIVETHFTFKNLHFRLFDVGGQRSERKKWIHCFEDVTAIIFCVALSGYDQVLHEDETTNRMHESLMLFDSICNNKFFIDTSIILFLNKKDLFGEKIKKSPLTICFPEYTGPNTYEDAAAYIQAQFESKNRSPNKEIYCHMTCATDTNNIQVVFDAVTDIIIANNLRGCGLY
INS promoter inh = TRM-6 insulin promoter activity inhibition | TRM-6 cells (human fetal islet line), insulin promoter-eGFP reporter, imaging; reporter expression induced with tamoxifen | inhibition, % at 2 µM | 130,000 compounds, 0.9% hits;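 active = inhibition above the mean plus 3 SD, with well images judged a real hit on visual review, cut at about 60% in these data, passing the limit was not always enough; inconclusive = inhibition over the cutoff but images rejected on review; inactive = inhibition not above the cutoff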
GALR2 ag = GALR2 (human) receptor agonism. GALR2-expressing cells, agonist activation read-out. AID 803. activation, %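 (tested at 5 µM)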. 140,000 compounds, 0.48% hits. O43603;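 active = above mean plus 3 SD of all compounds, about 5% in these data, not always enough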;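 also: 0% = vehicle buffer wells and 100% = reference agonist at full effect; tested in CHO reporter cells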
Target sequence (O43603 whole entry, looked up): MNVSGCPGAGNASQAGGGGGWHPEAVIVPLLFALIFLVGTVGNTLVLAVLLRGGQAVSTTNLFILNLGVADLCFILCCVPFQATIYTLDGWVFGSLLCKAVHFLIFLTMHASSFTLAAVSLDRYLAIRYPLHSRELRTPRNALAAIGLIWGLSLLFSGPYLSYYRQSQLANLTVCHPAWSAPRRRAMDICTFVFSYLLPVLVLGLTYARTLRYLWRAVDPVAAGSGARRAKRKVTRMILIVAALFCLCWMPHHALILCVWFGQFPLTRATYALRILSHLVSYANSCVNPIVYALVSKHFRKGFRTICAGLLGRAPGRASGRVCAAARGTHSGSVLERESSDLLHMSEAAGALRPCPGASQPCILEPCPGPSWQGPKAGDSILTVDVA
HSV augment = increases HSV replication in cells; HSV replication augmentation in cells, fold increase; maximum fold increase; 220,000 compounds, 0.005% hits; AID 1956;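 active = peak rise of 1.5-fold or more in the series; inconclusive = self-fluorescent or not available for retest; tested in PC3 cells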;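 also: first round at 10 µM; read as green reporter fluorescence; hits show the peak of a series up to 25 µM; 1 = signal of infected wells without compound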
PKD1 kinase inh = inhibitors of human PKD1 kinase; Q15139; PKD1 kinase fluorescence polarization assay; inhibition, %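 (about 10 µM by stock and volumes)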; 200,000 compounds, 0.056% hits;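 active = inhibition of 50% or more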;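 also: controls were vehicle for no effect and a reference inhibitor for full effect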
INS promoter inh cell count = second read-out of INS promoter inh, no call of its own (marks repeat the call); normalized cell count, %; measured here: cell count, toxicity; reference of the scale not given here;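 cells exposed to compound for 48 h; stained nuclei by imaging scaled within each plate; lower means fewer cells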
HSV augment primary fold = further read-out of HSV augment, marked with its call; fold increase; compound at 10 µM; measured here: primary screen fold increase 10 uM; tested in PC3 cells;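 GFP signal in the first replicate; 1 = infected wells without compound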
Active calls of the source: *; [ ] = remark or other dose.

For Cc1cccc(C)c1OCC(=O)NC(Cc1c[nH]c2ccccc12)C(=O)O (configuration not stated) the results were RGS16-Gao 105.8, HSV augment inactive, PKD1 kinase inh 1.9 and HSV augment primary fold 0.94.
For CCOC(=O)CN=C/C(C(C)=O)=C(/C)O the results were RGS16-Gao 101.8, HSV augment inactive, PKD1 kinase inh 3.8 and HSV augment primary fold 1.06.
For CC(C)(C)c1ccc(C2(C)NC(=O)N(CC(=O)NCc3cccs3)C2=O)cc1 (configuration not stated) the results were RGS16-Gao 89.9, INS promoter inh 11.1, GALR2 ag 0.5, HSV augment inactive, PKD1 kinase inh 4.6, INS promoter inh cell count 163.8 and HSV augment primary fold 0.94.
`Cc1nnc(NC(=O)CCSCCC(=O)Nc2nnc(C)s2)s1` gave RGS16-Gao 94.1, HSV augment inactive, PKD1 kinase inh -2.5 and HSV augment primary fold 1.
For Cc1nn(C(=O)c2nn(C)cc2[N+](=O)[O-])c(C)c1Cl the results were RGS16-Gao 103.7, HSV augment inactive, PKD1 kinase inh -4.9 and HSV augment primary fold 0.89.
Screening COc1ccc(OCCNc2cc(N3CCOCC3)ccc2[N+](=O)[O-])cc1 returned RGS16-Gao 102.9, INS promoter inh -16.7, GALR2 ag -0.5, PKD1 kinase inh -7.0 and INS promoter inh cell count 70.2.
`Cc1ccc(NC(=O)c2noc3c2CCCCC3)cc1C` gave RGS16-Gao 101.4, INS promoter inh 30.8, GALR2 ag -1.3, PKD1 kinase inh -1.6 and INS promoter inh cell count 131.4.
For CCN(CC)c1ccc(/C=N/NC(=O)c2ccco2)cc1 the results were RGS16-Gao 96.8, INS promoter inh 0.0, GALR2 ag -0.7, HSV augment inactive, PKD1 kinase inh -6.6, INS promoter inh cell count 104.7 and HSV augment primary fold 0.65.
`O=C1CCCc2c1nc(-c1ccccc1F)n2O` gave RGS16-Gao 93.2, HSV augment inactive and HSV augment primary fold 1.16.
CCOc1ccccc1NC(=O)Cn1c(C)cc(COC)c(C#N)c1=O was read as RGS16-Gao 85.3, INS promoter inh 18.2, GALR2 ag 0.8, HSV augment inactive, PKD1 kinase inh 8.1, INS promoter inh cell count 98.0 and HSV augment primary fold 0.86.
For COc1ccc(C(=O)NNC(=O)C2CCCN(C3CC(=O)N(c4ccccc4)C3=O)C2)cc1 (configuration not stated) the results were RGS16-Gao 99.1, HSV augment inactive and HSV augment primary fold 0.88.
Cc1nn(Cc2ccc(C(=O)N3N=C(C(F)F)CC3(O)C(F)F)cc2)c(C)c1[N+](=O)[O-] (configuration not stated) was read as RGS16-Gao 105.3, INS promoter inh -4.4, GALR2 ag 0.4, HSV augment inactive, PKD1 kinase inh 8.7, INS promoter inh cell count 126.3 and HSV augment primary fold 0.87.
`C/C(=N/NS(=O)(=O)c1ccc(F)cc1)c1ccc(NC(=O)c2ccc(C)o2)cc1` gave RGS16-Gao 103.0, INS promoter inh -15.5, GALR2 ag -1.9, HSV augment inactive, PKD1 kinase inh -8.4, INS promoter inh cell count 116.2 and HSV augment primary fold 0.95.
Screening NNC(=O)c1ccc(COc2ccc3c(c2)CCC3)o1 returned RGS16-Gao 105.3, GALR2 ag 0.0, HSV augment inactive, PKD1 kinase inh -7.5 and HSV augment primary fold 1.
For CCCn1c(N)c(C(=O)CSc2ncc(C(F)(F)F)cc2Cl)c(=O)[nH]c1=O the results were RGS16-Gao 98.9, HSV augment inactive, PKD1 kinase inh 3.7 and HSV augment primary fold 0.96.

The final two records of the section above lead into the next.
Screening NNC(=O)c1ccc(COc2ccc3c(c2)CCC3)o1 returned RGS16-Gao 105.3, GALR2 ag 0.0, HSV augment inactive, PKD1 kinase inh -7.5 and HSV augment primary fold 1.
For CCCn1c(N)c(C(=O)CSc2ncc(C(F)(F)F)cc2Cl)c(=O)[nH]c1=O the results were RGS16-Gao 98.9, HSV augment inactive, PKD1 kinase inh 3.7 and HSV augment primary fold 0.96.
O=C(Cn1cnc2ccccc2c1=O)NCCC(=O)Nc1ccc2c(c1)OCCO2 was read as RGS16-Gao 100.5, GALR2 ag -1.6, HSV augment inactive, PKD1 kinase inh -4.0 and HSV augment primary fold 0.947.
Screening O=C1C2C(C(=O)N1/N=C/c1ccc([N+](=O)[O-])o1)C1C=CC2C12CC2 (configuration not stated) returned RGS16-Gao 99.9, INS promoter inh -7.7, GALR2 ag -1.5, HSV augment inactive, PKD1 kinase inh 6.2, INS promoter inh cell count 65.2 and HSV augment primary fold 0.8.
Screening CCN1CCN(C(C)C(=O)Nc2c(C)n(C)n(-c3ccccc3)c2=O)CC1 (configuration not stated) returned RGS16-Gao 99.8, INS promoter inh 0.0, GALR2 ag -0.1, HSV augment inactive, PKD1 kinase inh -0.2, INS promoter inh cell count 108.0 and HSV augment primary fold 0.997.
Screening Cc1c(NC(=O)C2CC(c3c(F)cccc3Cl)=NO2)c(=O)n(-c2ccccc2)n1C (configuration not stated) returned RGS16-Gao 92.7, INS promoter inh 14.3, GALR2 ag -2.3, HSV augment inactive, PKD1 kinase inh 3.1, INS promoter inh cell count 97.4 and HSV augment primary fold 0.92.
`O=C(/C=C/c1ccc(F)cc1)Nc1ccc(S(=O)(=O)Nc2ncccn2)cc1` gave RGS16-Gao 101.9, HSV augment inactive and HSV augment primary fold 1.01.
Screening Cc1cc(NC(=O)c2ccc(NC(=O)C(C)C)cc2)no1 returned RGS16-Gao 94.7, INS promoter inh 50.0, GALR2 ag -1.9, HSV augment inactive, PKD1 kinase inh 0.1, INS promoter inh cell count 105.8 and HSV augment primary fold 0.86.
Screening CC(C)CN(C(=O)CSc1nnnn1C)C1CCS(=O)(=O)C1 (configuration not stated) returned RGS16-Gao 97.4, INS promoter inh -6.7, HSV augment inactive, PKD1 kinase inh -2.6, INS promoter inh cell count 115.0 and HSV augment primary fold 0.94.
COc1ccc(SCCN2CCN(C)CCC2=O)cc1 was read as RGS16-Gao 96.7, HSV augment inactive and HSV augment primary fold 0.925.
For COc1ccccc1NCCC(=O)OCC(=O)NC1CCCCC1 the results were RGS16-Gao 109.8, GALR2 ag -2.1, HSV augment inactive, PKD1 kinase inh 0.5 and HSV augment primary fold 1.12.
For O=C(O)COc1ccc(-c2nnn(CC(=O)O)n2)cc1 the results were RGS16-Gao 103.8, INS promoter inh 15.8, GALR2 ag 0.0, HSV augment inactive, PKD1 kinase inh -5.8, INS promoter inh cell count 154.6 and HSV augment primary fold 1.01.
Screening CCOC(=O)/C(C#N)=C/C=C1\C=Cc2ccccc2N1CC returned RGS16-Gao 105.7, INS promoter inh -207.1, HSV augment inconclusive, PKD1 kinase inh 5.9 and INS promoter inh cell count 100.0.
Screening CCOC(=O)c1ccc(S(=O)(=O)N2CCN(CC(=O)NC(=O)NC3CCCCC3)CC2)cc1 returned RGS16-Gao 185.2*[activator], GALR2 ag -0.4 and PKD1 kinase inh -14.2.
`CSc1ccccc1NC(=O)C1CCCO1` (configuration not stated) gave RGS16-Gao 102.5, HSV augment inactive and HSV augment primary fold 0.99.
Screening COc1ccccc1C(=O)C1CCCN(C(=O)c2cn3cc(Cl)ccc3n2)C1 (configuration not stated) returned RGS16-Gao 105.9, INS promoter inh 43.8, HSV augment inactive, PKD1 kinase inh -4.2, INS promoter inh cell count 118.2 and HSV augment primary fold 0.96.
Screening CCN(CC)c1ccc(/C=N/NC(=O)CC(C)C)cc1 returned RGS16-Gao 109.2, HSV augment inactive, PKD1 kinase inh -1.9 and HSV augment primary fold 1.02.
`Cc1onc(-c2ccccc2)c1CNC(=O)C1COc2ccccc2O1` (configuration not stated) gave RGS16-Gao 94.9, HSV augment inactive and HSV augment primary fold 0.9.
`COCCNC(=O)CN1CCC(NC(=O)C(C)(C)C)CC1` gave RGS16-Gao 106.3, GALR2 ag -1.0, HSV augment inactive, PKD1 kinase inh 0.3 and HSV augment primary fold 0.97.
COc1ccc(-n2c(COc3ccc(C)cc3)nnc2SCC(N)=O)cc1 was read as RGS16-Gao 92.9, INS promoter inh -21.4, GALR2 ag -0.4, HSV augment inactive, PKD1 kinase inh 1.0, INS promoter inh cell count 119.6 and HSV augment primary fold 0.93.
Screening CCSc1nc2ccccc2n1C(=O)Oc1ccccc1 returned RGS16-Gao 141.2, GALR2 ag -0.5, HSV augment inactive, PKD1 kinase inh -1.7 and HSV augment primary fold 0.91.
`C=CCOC(=O)C1=C(C)Nc2nnnn2C1c1cccs1` (configuration not stated) gave RGS16-Gao 96.6, INS promoter inh -25.7, GALR2 ag -2.6, HSV augment inactive, PKD1 kinase inh 5.8, INS promoter inh cell count 136.0 and HSV augment primary fold 1.
O=C(NCc1ccco1)c1ccc2snnc2c1 was read as RGS16-Gao 102.4, INS promoter inh 21.4, GALR2 ag -1.3, HSV augment inactive, PKD1 kinase inh -5.8, INS promoter inh cell count 135.1 and HSV augment primary fold 1.07.
Screening c1ccc(COc2ccc(OCCCCN3CCCC3)cc2)cc1 returned RGS16-Gao 101.8, GALR2 ag -1.7, HSV augment inactive, PKD1 kinase inh 4.6 and HSV augment primary fold 0.81.
For COc1ccc(C(=O)/C(=C/N(C)C)S(=O)(=O)c2ccccc2)cc1 the results were RGS16-Gao 103.4, INS promoter inh -60.0, HSV augment inactive, PKD1 kinase inh -1.1, INS promoter inh cell count 68.3 and HSV augment primary fold 1.03.
Screening COC(=O)c1[nH]c2ccc(C)cc2c1NC(=O)Nc1ccc(OC)cc1 returned RGS16-Gao 107.0, INS promoter inh -3.6, GALR2 ag -0.6, HSV augment inactive, PKD1 kinase inh 15.9, INS promoter inh cell count 71.6 and HSV augment primary fold 0.96.
Screening CCCn1c2c(c(O)c(C(=O)NC)c1=O)CCCC2 returned RGS16-Gao 105.9, INS promoter inh 27.0, GALR2 ag -0.7, HSV augment inactive, PKD1 kinase inh -10.7, INS promoter inh cell count 69.0 and HSV augment primary fold 0.9.
Screening CCNC(=S)N/N=C(\C)c1cc2ccccc2o1 returned RGS16-Gao 99.5, GALR2 ag -2.4, HSV augment inactive, PKD1 kinase inh -17.3 and HSV augment primary fold 1.02.
Screening CCc1ccc(OCC(=O)N/N=C/c2cc([N+](=O)[O-])ccc2N2CCOCC2)cc1 returned RGS16-Gao 99.4, INS promoter inh -56.7, GALR2 ag -0.1, HSV augment inactive, PKD1 kinase inh 2.9, INS promoter inh cell count 110.1 and HSV augment primary fold 0.88.
Screening O=C(CN1CCN(S(=O)(=O)/C=C/c2ccccc2)CC1)Nc1ccc(N2CCOCC2)cc1 returned RGS16-Gao 106.5, INS promoter inh -28.6, HSV augment inactive, PKD1 kinase inh 9.5, INS promoter inh cell count 72.8 and HSV augment primary fold 0.9.
c1ccc(N2CCCCC2)c(Nc2nc3ccccc3n3cnnc23)c1 was read as RGS16-Gao 98.8, HSV augment inactive and HSV augment primary fold 0.87.
Screening CC(c1ccc(F)cc1)n1c(-c2cccs2)n[nH]c1=S (configuration not stated) returned RGS16-Gao 92.2, HSV augment inactive, PKD1 kinase inh -0.7 and HSV augment primary fold 1.12.
COc1ccc(C(CCO)NC(=O)c2cccs2)cc1OC (configuration not stated) was read as RGS16-Gao 102.0, HSV augment inactive, PKD1 kinase inh 5.8 and HSV augment primary fold 0.97.
Screening CC(Oc1ccc(Br)cc1)c1nc2c3ccccc3nc(=S)n2[nH]1 (configuration not stated) returned RGS16-Gao 71.9, INS promoter inh 46.7, HSV augment inactive, PKD1 kinase inh -6.9, INS promoter inh cell count 98.2 and HSV augment primary fold 0.95.
COC(=O)c1cc2n(n1)CCN(Cc1ccc(F)cc1)C2=O was read as RGS16-Gao 94.7, INS promoter inh 30.0, GALR2 ag -0.9, HSV augment inactive, PKD1 kinase inh 5.2, INS promoter inh cell count 112.5 and HSV augment primary fold 0.87.
Screening CCCOc1c(Cl)cc(C(=O)Nc2ccc3c(c2)OCO3)cc1OCC returned RGS16-Gao 101.5, INS promoter inh -4.2, GALR2 ag -1.7, HSV augment inactive, PKD1 kinase inh -5.2, INS promoter inh cell count 78.6 and HSV augment primary fold 0.82.
Oc1[nH]c2ccccc2c1N=Nc1ccccc1F was read as RGS16-Gao 108.2, INS promoter inh -30.6, GALR2 ag 0.8, HSV augment inactive, PKD1 kinase inh -0.7, INS promoter inh cell count 74.9 and HSV augment primary fold 1.23.
Screening O=C(Nc1cc(S(=O)(=O)N2CCOCC2)ccc1Cl)C(=O)c1c(-c2ccccc2)cc2ccccn12 returned RGS16-Gao 101.2, INS promoter inh 13.0, GALR2 ag -3.2, HSV augment inactive, PKD1 kinase inh -7.2, INS promoter inh cell count 110.0 and HSV augment primary fold 0.65.
Screening Cc1cc(Nc2ccc(N3CCOCC3)cc2)c2cccc(C)c2n1 returned RGS16-Gao 100.5, HSV augment inactive and HSV augment primary fold 0.9.
